Source: PubChem BioAssay
BJeLR viability: MLPCN primary cell-based screen for lethality selective to Ras in HRASV12 cells | inhibition, % (test concentration not listed) | hit rate 0.17% among 300,000 | BJeLR (HRASV12) viability, CellTiter-Glo ATP luminescence, 48 h; reference of the scale not given here | AID 1554, 2009;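 active = replicate mean above 50%; inconclusive = above 50% but judged a plate artefact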;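 note: 50 nL library stock added to about 25 µL; numbers are from one replicate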
Bead autofluor: compound fluorescence in toxin protease inhibitor counterscreen; hit rate 3.1% among 360,000; fluorescence intensity (concentration not given with the values); compound autofluorescence counterscreen, microsphere flow cytometry; hits give high values;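 active = at least 3 SD above the mean of all compounds, about 16000 in these data; inconclusive = too few beads counted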;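 note: 100 nL of 1 mM stock went into each well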
RN4220 kill: growth inhibition of S. aureus RN4220, primary screen, OD600; 16 h; inhibition, % (test concentration not listed); hit rate 0.33% among 330,000;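 active = z-score of -3 or lower and OD600 up to 0.18 on both plates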;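 note: plate controls were untreated cells for no effect and reference antibiotic for full effect; stock transfer was 100 nL into about 80 µL; one replicate is shown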
PrP 5UTR inh: inhibition of PrP 5' UTR reporter expression; cell-based PrP 5' UTR mRNA reporter, plate reader; inhibition, % (test concentration not listed); hit rate 0.35% among 340,000;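 active = every replicate at 50% or more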;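 note: 0 = median of the neutral control wells; tested in H4 reporter cells; numbers are from one replicate; inactives centre near -14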
ugtP null kill: growth inhibition of ugtP-null S. aureus, primary screen, RN4220 ugtP deletion, OD600; 16 h; some inactives read as strong as hits; growth inhibition, % (no concentration beside the values); hit rate 0.54% among 330,000; AID 1259309, 2017;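 active = z-score under -3 and OD600 up to 0.15 on both plates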;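 note: plate controls were untreated wells for no effect and antibiotic for full effect; wells of about 80 µL received 100 nL stock; the first replicate is given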
Mtb hypoxia rep: PubChem AID 1159583; M. tuberculosis hypoxia-regulated fluorescent reporter, fluorescence; fluorescence inhibition, % (concentration not given with the values); hit rate 0.1% among 300,000;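 active = 35 to 45% if threefold the growth effect, above 45% if 1.5-fold the growth effect; inactive = the rest, general growth blockers included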;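 note: wells of about 50 µL received 100 nL stock; 0% = vehicle wells and 100% = reference inhibitor wells; whole bacteria with a GFP reporter of the hypoxia response; strong numbers were not always called active; many hits fall short of the cut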
Mtb hypoxia rep growth: further read-out of Mtb hypoxia rep, marked with its call; growth inhibition, %; measured here: M. tuberculosis growth (absorbance);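 0% = vehicle and 100% = reference antibiotic; read after six days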
An asterisk follows results filed as active; ? = inconclusive; . = not tested or not shown; & = joins results of further samples.

SMILES	BJeLR viability	Bead autofluor	RN4220 kill	PrP 5UTR inh	ugtP null kill	Mtb hypoxia rep	Mtb hypoxia rep growth
COc1ccc(N2CCN(C(CNC(C)=O)c3ccco3)CC2)cc1 (stereo not given)	14	6099	3.8	1	3	4	6
O=C(NCc1ccncc1)/C(=N/O)c1ccccc1	0	4720	.	9	.	.	.
O=C(O)CCC(=NNC(=O)c1ccccc1Br)c1ccccc1	.	.	1.9	.	7	7	-2
C=CCN=C1SC(C)C(=O)N1S(=O)(=O)c1ccccc1 (stereo not given)	-3	4323	4.9	7	-5	.	.
CCC(C)N1CC23C=CC(O2)C(C(=O)OCc2ccccc2)C3C1=O (stereo not given)	5	4734	2.4	-13	11	.	.
O=S(=O)(N/N=C\c1ccc2c(c1)OCO2)c1ccccc1	-6	6212	.	-16	.	.	.
COCCSc1ccccc1C(=O)N1CCN(Cc2ccccc2)CC1	-4	4368	0.3	-10	11	15	9
CN(C)C1(c2nnnn2CCOC(=O)Nc2ccc(Cl)cc2)CCCCC1	15	2994	-1.3	-42	-10	4	10
Cc1ccc(CN(c2ccc(C(=O)N3CCc4ccccc4C3)cc2)S(C)(=O)=O)cc1	7	11816	3.1	-26	-14	4	8
CCOC(=O)N1CCN(C(=O)c2ccc(C)c(S(=O)(=O)Nc3ccccc3)c2)CC1	2	3457	0.7	-22	3	.	.
CC(C)n1c(=N)c(C(=O)NCCc2ccccc2)cc2c(=O)n3ccccc3nc21	9	4034	2.7	-15	-1	5	9
CCCC(=O)NC(=S)Nc1sc2c(c1C(N)=O)CCC2	9	2677	7.2	-24	4	-1	-18
Cc1ccc(NS(=O)(=O)c2ccc(CCC(=O)O)cc2)cc1	14	7637	-4.1	-7	23	10	7
CC(C(=O)N1CCc2ccccc21)N1CCN(S(=O)(=O)c2cccc(C(F)(F)F)c2)CC1 (stereo not given)	.	8179	3.0	-4	3	-1	3
CCc1nnc(NC(=O)CCN2C(=O)c3ccccc3C2=O)s1	10	22862*	5.8	-10	0	-3	5

Single records, as listed above. Order of screens: BJeLR viability	Bead autofluor	RN4220 kill	PrP 5UTR inh	ugtP null kill	Mtb hypoxia rep	Mtb hypoxia rep growth
Listed for CCC(C)N1CC23C=CC(O2)C(C(=O)OCc2ccccc2)C3C1=O (stereo not given) = 5	4734	2.4	-13	11	.	.
Listed for O=C(NCc1ccncc1)/C(=N/O)c1ccccc1 = 0	4720	.	9	.	.	.
Listed for Cc1ccc(NS(=O)(=O)c2ccc(CCC(=O)O)cc2)cc1 = 14	7637	-4.1	-7	23	10	7
Listed for O=C(O)CCC(=NNC(=O)c1ccccc1Br)c1ccccc1 = .	.	1.9	.	7	7	-2
Listed for CC(C)n1c(=N)c(C(=O)NCCc2ccccc2)cc2c(=O)n3ccccc3nc21 = 9	4034	2.7	-15	-1	5	9

As entered above.
Cc1ccc(NS(=O)(=O)c2ccc(CCC(=O)O)cc2)cc1 | BJeLR viability = 14
O=S(=O)(N/N=C\c1ccc2c(c1)OCO2)c1ccccc1 | Bead autofluor = 6212
Cc1ccc(CN(c2ccc(C(=O)N3CCc4ccccc4C3)cc2)S(C)(=O)=O)cc1 | Bead autofluor = 11816
CCC(C)N1CC23C=CC(O2)C(C(=O)OCc2ccccc2)C3C1=O (stereo not given) | BJeLR viability = 5
CCOC(=O)N1CCN(C(=O)c2ccc(C)c(S(=O)(=O)Nc3ccccc3)c2)CC1 | ugtP null kill = 3

Further entries follow.
SMILES	BJeLR viability	Bead autofluor	RN4220 kill	PrP 5UTR inh	ugtP null kill	Mtb hypoxia rep	Mtb hypoxia rep growth
O=C1CCN(S(=O)(=O)c2ccccc2)CCN1CCOCc1ccc(Cl)cc1	-7	4261	3.5	-24	6	0	9
O=c1[nH]cnc2ncc(-c3ccc(O)cc3)nc12	6	4243	4.1	-21	3	-3	2
NC(N)=NN=Cc1ccc(OCc2ccc(Cl)cc2)cc1	.	.	100*	.	100*	14	3
COc1ccc(/C=N/Nc2ccccc2C(=O)O)cc1Cn1cc([N+](=O)[O-])cn1	2	6166	.	-34	.	.	.
CC(=O)N/C(=C/c1ccccc1)C(=O)N1CCCCC1	18	9438	3.1	-9	11	2	-7
COc1ccc(S(=O)(=O)NCCC(=O)NC2CCCCC2C)cc1[N+](=O)[O-] (stereo not given)	.	3441	0.1	-15	-6	-25	2
O=C(/C=C/c1ccc2c(c1)OCO2)N1CCN(c2ccccc2F)CC1	-8	1871	2.2	-16	0	-3	6
Cc1cccc(NC(=O)CNC(=O)CCNC(=O)c2ccc(C(C)(C)C)cc2)c1C	.	.	5.3	-16	-3	4	3
C=CCC1c2cccc(C(=O)OC)c2C(=O)N1c1ccccc1 (stereo not given)	5	6497	0.5	-29	1	11	3
CCN(CC)c1ccc(C=NNC(=O)c2ccc3c(c2)OCCO3)cc1	.	.	3.2	.	4	3	4
NC(=NCCCCCCN=C(N)/N=C(\N)Nc1ccc(Cl)cc1)/N=C(\N)Nc1ccc(Cl)cc1	2&-1&-1	6861&6461&4627	.	-37&-21&40	.	.	.
Cc1nc(CCNC(=O)CC2C(=O)NCCN2CC(C)C)nc2c1CCC2 (stereo not given)	-10	4427	2.3	-8	4	8	1
COc1ccc(CNC(=O)C2CC(c3ccccc3C(F)(F)F)=NO2)cc1 (stereo not given)	-4	3489	0.7	-6	-3	-5	0
COc1ccc(C=NNS(=O)(=O)c2ccc(C)cc2)cc1	.	.	3.2	.	10	2	-8
Cc1cc(C(=O)NN=Cc2ccc(-c3cccc(Cl)c3)o2)n[nH]1	.	.	-0.8	.	-12	-2	6
O=C(Nc1ccccc1N1CCCCC1)c1ccc2nccnc2c1	2	4090	0.5	5	1	.	.
CC(=O)c1cccc(OC(=O)c2ccc3c(=O)n4c(nc3c2)CCC4)c1	-2	?	-0.1	2	-9	3	16
Cc1sc(NC(=O)CSc2nc(O)cc(=O)[nH]2)nc1-c1ccccc1	0	5007	0.8	-12	5	0	-1
O=C(NN=Cc1ccc(N2CCOCC2)cc1)c1ccc(O)cc1	.	.	-0.5	.	3	3	5
Cc1ccc(CN2CCN(CC(=O)N/N=C/c3c[nH]c4ccccc34)CC2)cc1	-14	2187	.	-14	.	.	.
CCc1ccc2c(CN(CC)Cc3nc4ccccc4c(=O)[nH]3)cc(=O)oc2c1	5	3598	1.8	-2	12	10	5
COc1ccc(N2C(=O)CC(NC3CC3)C2=O)cc1 (stereo not given)	-13	2810	-13	-1	-6	14	8
COc1ccc(OC)c(/C=C/C(=O)NCCc2nc3ccccc3[nH]2)c1	3	.	3.0	-9	3	3	6
CCc1ccc(CN2CCCC(C(=O)N3CCCCC3)C2)cc1 (stereo not given)	-11	.	1.3	-27	4	7	-1
CCc1cccc(C)c1NC(=O)CCCN1C(=O)CN(C)C1=O	.	6156	0.4	8	-1	-2	10
O=C(Nc1nccs1)[C@@H]1CCCN1S(=O)(=O)c1ccccc1F	.	6109	0.4	-23	-5	3	6
CC(=O)N1c2ccc(S(=O)(=O)N(C)Cc3ccccc3)cc2CC1C (stereo not given)	-14	5226	6.2	-8	3	3	0
COc1ccc(C2CC(c3ccccc3)=NN2c2ccccc2)c(C(=O)O)c1OC (stereo not given)	-2	4500	23	-27	-13	4	-1
c1ccc(CSc2nnnn2-c2ccccc2)cc1	-2	9762	8.9	-25	-3	10	13
CC1CCCCC1NC(=O)Cn1cnc2sccc2c1=O (stereo not given)	.	?	1.9	-38	1	1	11
CCOC(=O)c1cnn(-c2ccc(NS(=O)(=O)c3ccc(Cl)cc3)cc2)c1C(F)(F)F	-5	5839	0.2	-3	-22	0	-15
CC1(C)Cc2c(c(N3CCOCC3)nc3sc(-c4ccc(C(=O)O)o4)c(N)c23)CO1	-11	3135	2.2	-13	-4	.	.
Cc1ccc(-c2nn(-c3ccccc3)cc2/C=C/C(=O)Nc2cccc(S(N)(=O)=O)c2)cc1	6	4733	1.4	-27	4	-13	-7
Cc1cc(NCCCN(C)C)n2nc(-c3cccs3)cc2n1	-8	2531	-0.5	-9	4	.	.
O=C(COc1ccc(F)cc1)Nc1nnc(C2CC2)s1	7	3934	1.0	-18	2	4	4
CCCc1cc(=O)[nH]c(SCC(=O)Nc2ncc(S(=O)(=O)c3ccc([N+](=O)[O-])cc3)s2)n1	2	3371	16	9	-3	0	4
S=C(NCc1ccco1)N1CCN(Cc2ccco2)CC1	-9	10049	9.1	-47	-8	5	11
CCNC(=O)CC(C)=NNC(=O)C(=O)Nc1ccc(CC)cc1	.	.	4.0	.	2	-2	-4
COc1cc(NS(=O)(=O)c2ccc(NC(=S)Nc3ccccc3)cc2)nc(OC)n1	-6	5320	-0.1	-2	10	7	10
Cc1cc(C)cc(C(=O)NC(CC(N)=O)c2ccc(N3CCN(c4ccccc4)CC3)c([N+](=O)[O-])c2)c1 (stereo not given)	7	2870	10	-16	15	18	7
ON=C1CCCc2c1nc(-c1ccccc1F)n2O	.	.	4.2	.	9	5	8
COc1ccc(CNC(=O)C(C)OC(=O)c2cccs2)cc1 (stereo not given)	-5	5061	2.9	-11	-6	11	-5
CN(C)S(=O)(=O)c1cccc(-c2csc(NN=Cc3ccco3)n2)c1	.	.	1.6	.	17	11	-1
COC(=O)c1ccc(COC(=O)CNC(=O)c2cccc(OC)c2)o1	.	3380	1.4	-21	-1	10	1
CCC(C)[C@H](NC(=O)OC(C)(C)C)C(=O)N/N=C/c1cccc2nccnc12 (stereo not given in full)	9	10898	.	-27	.	.	.

Next part, starting with the last 4 of the part before.
SMILES	BJeLR viability	Bead autofluor	RN4220 kill	PrP 5UTR inh	ugtP null kill	Mtb hypoxia rep	Mtb hypoxia rep growth
COc1ccc(CNC(=O)C(C)OC(=O)c2cccs2)cc1 (stereo not given)	-5	5061	2.9	-11	-6	11	-5
CN(C)S(=O)(=O)c1cccc(-c2csc(NN=Cc3ccco3)n2)c1	.	.	1.6	.	17	11	-1
COC(=O)c1ccc(COC(=O)CNC(=O)c2cccc(OC)c2)o1	.	3380	1.4	-21	-1	10	1
CCC(C)[C@H](NC(=O)OC(C)(C)C)C(=O)N/N=C/c1cccc2nccnc12 (stereo not given in full)	9	10898	.	-27	.	.	.
CC(=NNC(=O)c1ccc2c(c1)OCO2)c1ccco1	.	.	13	.	5	3	5
COc1ccc(C2C3C(=O)N(C(C)(C)C)C(=O)C3[C@]3(C)C(=O)N(c4cccc(F)c4)C(=O)N23)cc1 (stereo not given in full)	.	.	5.6	.	6	-4	-3
Brc1ccc(-c2cn3c(n2)SCC3)cc1	5	2096	2.2	-57	1	8	8
Cc1ccc(S(=O)(=O)NNC(=O)C2COc3ccccc3O2)cc1 (stereo not given)	-17	2589	0.8	-11	3	-13	-1
COCCn1c(C)cc(C(=O)COC(=O)c2ccc(Br)o2)c1C	-4	3486	-1.7	-78	4	3	1
O=C(Cn1c(=O)oc2ccccc21)Nc1ccccc1N1CCOCC1	0	4170	-0.4	4	3	9	6
Cn1nc(C(F)(F)F)c(-c2ccccc2)c1N	-5	5735	2.0	-24	-2	-8	-3
COc1ccccc1CCC(=O)OCC(=O)Nc1ccc(S(N)(=O)=O)cc1	-22	3790	2.1	-9	2	13	10
Cc1ccc(S(=O)(=O)Cc2ccc(C(=O)N3CCC(C)CC3)cc2)cc1	-10	4660	-0.3	-8	-3	8	-1
CC(CC(=O)OCC(=O)NC1CCS(=O)(=O)C1)c1ccccc1 (stereo not given)	.	2745	-3.3	-12	-2	-3	2
CCOc1ccccc1NC(=O)Nc1cc(OC)ccc1OC	-9	16097	1.5	-8	2	0	-5
Cc1cccc(/N=C/c2c(O)[nH]c3ccccc23)n1	-6	12649	.	-70	.	.	.
CCOc1ccc(C)cc1-n1nc2ccccc2n1	1	6055	17	-12	20	4	2
CCN1CCC2(CC1)N=C(c1ccc(F)cc1)C(=S)N2C(=O)c1ccc(C(C)(C)C)cc1	2	2081	4.8	-1	3	-3	11
COc1ccc(CNC(=O)COC(=O)CON=C(C)c2ccc3c(c2)OCO3)cc1	.	.	2.5	.	1	2	-5
O=c1cc(CN2CC=C(c3ccccc3)CC2)c2c(ccc3ccccc32)o1	7	2619	1.2	-12	-1	6	6
O=C(O)c1ccc(Cn2c(=S)[nH]c3cc(Cl)ccc3c2=O)cc1	-1	3120	0.3	9	-34	9	1
